Bioassay records: PubChem BioAssay, several laboratories
RanGTP-Impb inh = inhibitors of RanGTP-importin-beta interaction, primary screen, biochemical, FRET, CFP-Ran, YFP-importin-beta, homogeneous | cell-free CFP-Ran/YFP-importin-beta FRET ratio | inhibition, % (concentration not given with the values) | actives 1.1% (n = 300,000);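 active = most replicates above 15%; inconclusive = exactly half above 15%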;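 note: 0% = DMSO wells and 100% = Ran loaded with GDP instead of GTP; wells of about 40 µL received 100 nL stock; the first replicate is given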
T cruzi inh = blocks replication of Trypanosoma cruzi. T. cruzi beta-gal in NIH3T3, luminescence, 90 h. actives 1.4% (n = 300,000). inhibition, % (test concentration not listed);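 active = mean inhibition across valid replicates above about 55%, limit read from the data; inconclusive = mean below that limit but half or more replicates reach it; inactive = mean below it, under half of replicates reach it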;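 note: signal also drops with host cell toxicity which is not excluded here; 0% = plate median of DMSO wells and 100% = zero luminescence signal; higher percent means less beta-gal luminescence so fewer parasites; stock transfer was 50 nL into about 50 µL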
rRNA inh HTS = selective bacterial rRNA inhibition in E. coli | GFP signal change (wild-type ribosome), % (test concentration not listed) | E. coli WT GFP vs humanized-ribosome RFP mutants, fluorescence, 24 h; hits give low values; DMSO median 0, no signal -100 | actives 1.6% (n = 350,000);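 active = significant combined selectivity score with lowered wild-type GFP, culture density cut under 30%, mutant RFP and density less affected; inactive = any of these conditions unmet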; note: one replicate is shown; some compounds called inactive have numbers as strong as hits
Vif TR-FRET = HIV-1 Vif–A3G interaction blockers – biochemical, TR-FRET, GST-Vif 1-94, biotin-A3G peptide, dose response retest, primary screen (AID 1117319); TR-FRET GST-Vif / biotin-A3G peptide binding; higher % means a stronger effect; test concentration not given here; strong numbers were not always called active; inhibition, %; hits with a dose series show IC50 in µM; actives 0.57% (n = 260,000);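 active = above the screen mean plus three standard deviations and confirmed in dose response; inconclusive = results disagree or hit not tested in dose response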;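 note: Vif residues 1-94 fused to GST binding biotinylated APOBEC3G peptide 110-148; 0% = full assay without inhibitor and 100% = GST in place of GST-Vif; retest series ran down from 100 µM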
Bfl-1 A1 inh = inhibitors of the anti-apoptotic protein A1, read as caspase activation | MEF A1-2A-BIM cells, Caspase-Glo 3/7 luminescence, 3 h; percent of clofoctol response, vehicle zero | caspase activation, % (no concentration beside the values) | actives 0.066% (n = 330,000) | AID 2462;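 active = over half of replicate activation scores above 10%, or exactly half above 10 with the replicate mean above 10; inconclusive = replicate mean below 10 yet half the replicates above 10; inactive = over half of replicates below 10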;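 note: wells of about 30 µL received 50 nL stock; many hits fall short of the cut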
MLL AF4-AF9 inh = MLL-AF4/AF9 protein interaction inhibition; P42568; actives 0.47% (n = 350,000); inhibition, % at 10 µM; AlphaScreen, biotin-AF4 peptide binding to FLAG-AF9; AID 651704;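 active = every replicate reaching a set inhibition limit, whatever the replicate mean, cut at about 25% in these data; inconclusive = mean inhibition reaches that limit but some replicates miss it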;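 note: 0% = plate neutral control median and 100% = total signal loss; the record names both 10 and 1 µM as test concentration; the first replicate is given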
Target sequence (P42568 whole entry, looked up): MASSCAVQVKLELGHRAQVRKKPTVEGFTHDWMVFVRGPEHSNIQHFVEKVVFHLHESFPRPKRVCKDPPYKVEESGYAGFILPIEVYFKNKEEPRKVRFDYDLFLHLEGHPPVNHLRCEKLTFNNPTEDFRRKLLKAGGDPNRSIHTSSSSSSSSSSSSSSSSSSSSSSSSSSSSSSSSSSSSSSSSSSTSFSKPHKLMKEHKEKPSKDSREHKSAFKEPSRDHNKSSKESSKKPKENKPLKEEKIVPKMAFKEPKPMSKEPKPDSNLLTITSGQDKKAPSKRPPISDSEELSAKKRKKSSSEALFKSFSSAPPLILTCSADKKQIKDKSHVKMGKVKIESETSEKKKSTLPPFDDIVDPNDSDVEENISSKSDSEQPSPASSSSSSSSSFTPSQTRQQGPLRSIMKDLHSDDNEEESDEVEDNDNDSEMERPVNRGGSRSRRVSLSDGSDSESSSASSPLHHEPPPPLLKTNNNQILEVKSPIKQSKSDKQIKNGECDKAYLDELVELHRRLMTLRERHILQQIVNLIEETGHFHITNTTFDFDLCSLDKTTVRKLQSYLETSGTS
Calb FLC = C. albicans growth modulation with fluconazole | C. albicans CaCi-2 (fluconazole-resistant clinical isolate) + fluconazole, Alamar Blue growth, 48 h | growth inhibition, % (concentration not given with the values) | actives 0.57% (n = 300,000) | AID 1979;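 active = most replicates above 75%; inconclusive = exactly half above 75%; inactive = most below 75%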;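 note: all wells also contain fluconazole at 8 µg/ml as a sub-toxic cotreatment; 0% = median of DMSO wells and 100% = median of geldanamycin control wells; wells of about 8 µL received 7.5 nL stock; the first replicate is given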
Beta apoptosis = blocks beta cell apoptosis. actives 0.8% (n = 300,000). INS-1E cytokine-induced death, ATP luminescence, 48 h; percent of positive-control rescue, neutral wells zero. protection from apoptosis, % (concentration not given with the values);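 active = all replicates at 75% or more, or half of them and the mean; inconclusive = half reach 75% but not the mean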;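 note: 0% = cytokine-treated negative control wells and 100% = positive control rescue; higher means more ATP so stronger rescue from cytokine killing; wells of about 40 µL received 100 nL stock; the first replicate is given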
rRNA inh HTS OD600 = recorded beside rRNA inh HTS, whose call it bears; OD600 change, %; measured here: OD600 growth;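 optical density of the mix in the first replicate; 0 = DMSO median and -100 = no signal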
rRNA inh HTS RFP = recorded beside rRNA inh HTS, whose call it bears; RFP signal change, %; measured here: RFP humanized mutant strains;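 first replicate; 0 = DMSO median and -100 = no signal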
* hit, by the source's call; ? = inconclusive; / = no result given; & = joins results of further samples. This is a subset; count on the stated rates, not on these rows.

SMILES | RanGTP-Impb inh | T cruzi inh | rRNA inh HTS | rRNA inh HTS OD600 | rRNA inh HTS RFP | Vif TR-FRET | Bfl-1 A1 inh | MLL AF4-AF9 inh | Calb FLC | Beta apoptosis
CC(=O)c1ccc(N2C(=O)[C@@H]3[C@H](C2=O)[C@H]2c4ccccc4C=NN2[C@@H]3C(C)=O)cc1 | -5.9 | -2 | -8 | 8 | 1.7 | / | 0.1 | / | 2 | 2
C#CCOCCOCCOCCNc1nc(N2CCN(C(=O)[C@H]([C@@H](C)CC)n3cc([C@@H](N)Cc4ccc(O)cc4)nn3)CC2)nc(N2CCN(C(=O)[C@H](CCCCN)n3cc([C@@H](N)C(C)CC)nn3)CC2)n1 (stereo not given in full) | -0.1 | -14 | / | / | / | -7% | 0.1 | / | -1 | 0
CC(C)Oc1ccc(C(CC(=O)NCCCN(C)C)c2ccc(F)cc2)cc1 (stereo not given) | 4.1 | 12 | 18 | 6 | -1.2 | / | 0.7 | -3.2 | 1 | 0
CCc1ccc(OCC(=O)NC(NC(=S)Nc2ccc(C)cc2C)C(Cl)(Cl)Cl)cc1 (stereo not given) | 5.0 | 31 | / | / | / | -5%&-4% | -0.3 | / | -14 | 95*
O=C(CNc1ccccc1C(=O)O)c1ccccc1 | -0.8 | -11 | 2 | -1 | 1.9 | -3% | -2.7 | / | -1 | -6
CCOc1cccc2c1OC1(C)CC2NC(=O)N1Cc1ccccc1 (stereo not given) | -4.3 | 7 | 13 | -5 | 4.7 | / | / | -2.0 | 2 | /
COc1ccc(C(=O)OCC(=O)NC(=O)NC2CCCC2)cc1[N+](=O)[O-] | / | / | -17 | -5 | 3.6 | -1% | 0.0 | 0.8 | / | -8
c1ccc(Cn2ccc(-c3cnc(-c4ccccc4)s3)n2)cc1 | -1.0 | 8 | / | / | / | 8% | -12 | / | -17 | -1
CS(=O)(=O)N(CC(=O)Nc1cccc(F)c1)c1cccc([N+](=O)[O-])c1 | 1.9 | -16 | / | / | / | 15% | 0.2 | / | -8 | 23
COc1cc2[nH]c3c(N4CCN(c5ccccn5)CC4)ncnc3c2cc1OC | 0.8 | -2 | / | / | / | -3% | 0.6 | / | 1 | 27
CC(C)N(C(=O)COc1ccc(Br)cc1Cl)C(C)C | 0.7 | 24 | / | / | / | 32% | 0.1 | / | 1 | -1
COc1ccccc1CNC(=O)CN(CCc1ccccc1)S(C)(=O)=O | -2.4 | -4 | -17 | -26 | -0.9 | -7% | -0.5 | 1.0 | -7 | 2
COc1ccc(CC(=O)NNC(=O)c2ccoc2C)cc1OC | -3.2 | -6 | 0 | -2 | -6.8 | 6% | 1.1 | -8.7 | -3 | 0
C/C(=N/NS(=O)(=O)c1ccc(CC(C)C)cc1)c1ccncc1 | 8.5 | -7 | 7 | 3 | -1.5 | 9% | -0.3 | -1.4 | -4 | 28
Cn1cnc2ccc([N+](=O)[O-])cc2c1=O | 1.2 | 2 | 14 | 10 | 2.9 | / | 0.4 | -0.7 | 5 | -5
CCOC(=O)C1CCN(C(=O)c2sc3ncnc(N4CCC(C)CC4)c3c2C)CC1 | -0.8 | 32 | / | / | / | 0% | -0.7 | / | 17 | /
Cc1cc(=O)n2nc(N3CCC(C(=O)NCC(C)c4ccccc4)CC3)sc2n1 (stereo not given) | 1.1 | 9 | -6 | 4 | -0.1 | / | -1.3 | -0.1 | 3 | -1
CCN1C(=O)N(C)C2(c3ccccc3)N(C)C(=O)N(C)C12c1ccccc1 (stereo not given) | 6.0 | -1 | / | / | / | 2% | 0.6 | / | -4 | -1
Cc1cccc(N(CC(=O)NC(C)(C)C)C(=O)CCC(=O)Nc2nccs2)c1 | -3.1 | -2 | -13 | -8 | -0.4 | / | 0.6 | -2.2 | 23 | -1
Cc1c(C)n(CCC#N)c2ccc(Cl)cc12 | 0.7 | 17 | / | / | / | -2% | 0.2 | / | 15 | -19
COC(=O)c1c(-c2ccc(OC)c(OC)c2)csc1N | -3.9 | -7 | / | / | / | 1% | -2.3 | / | -1 | -6
CC(C)C(c1nnnn1C1CCCCC1)N1CCCc2ccccc21 (stereo not given) | 1.9 | 27 | / | / | / | -4% | ? | / | -3 | -1
CN(C)c1ccc(C(C(=O)NCC2CCCO2)N(C(=O)c2snc(C(N)=O)c2N)c2ccccc2)cc1 (stereo not given) | 1.3 | 2 | 0 | 2 | 0.6 | -33% | 0.7 | -0.9 | -7 | 1
Cc1ccc(CCNC(=O)CN2CCN(Cc3ccccc3F)C2=O)cc1 | -4.1 | 7 | / | / | / | -1% | -1.3 | / | -9 | 4
Cc1ccc(OCCCC(=O)Nc2ccc(Br)cc2)cc1 | -5.0 | -12 | / | / | / | -5% | 0.6 | / | -4 | -5
S=c1[nH]c2ccccc2o1 | -1.0 | 2 | 20 | 16 | 0.1 | / | -0.2 | -1.2 | -3 | -1
CC(=O)N1CCN(Cc2nc(C(c3ccccc3)c3ccccc3)no2)CC1 | -2.7 | -1 | -1 | -4 | -1.6 | 0% | 0.5 | -1.6 | -6 | /
CC(=O)c1ccccc1NC(=O)CCNC(=O)c1ccco1 | 1.7 | -8 | 5 | 14 | -1.7 | / | -1.0 | 0.6 | 22 | -1
CCOC(=O)N1CCC(NC(=S)Nc2ccc3nc(N4CCN(CC)CC4)cc(C)c3c2)CC1 | -3.5 | 28 | 1 | -11 | -8.7 | -7% | -0.6 | -12 | -11 | -6
CCCn1c(SCC(=O)NNC(=O)c2ccc(C)cc2)nnc1C(C)C | 1.4 | -20 | 4 | 9 | -1.7 | / | -0.2 | -0.1 | 13 | -6
Cn1ccnc1Sc1nnnn1-c1ccccc1 | 6.6 | -4 | / | / | / | -3% | 0.3 | / | 21 | -7
O=C(CN1CCc2cc3c(cc2C1)OCCCO3)Nc1ccc(F)cc1 | -3.3 | -2 | 4 | 8 | -0.5 | / | 1.6 | -0.6 | 0 | 5
CN(CC(=O)Nc1cccc2ccccc12)C(=O)c1ccc(F)cc1F | / | / | 21 | 10 | 2.1 | -5% | 0.1 | 0.1 | / | -1
CC(=O)Nc1ccc2c(c1)C(=O)N(c1cccc3ccccc13)C2=O | 0.4 | -1 | -15 | -12 | -3.0 | -2% | -0.5 | -1.3 | -2 | -2
CCN(CC)C(=O)C1CCCN(c2ccc([N+](=O)[O-])cc2/C=N/NC(=O)c2cccc(O)c2)C1 (stereo not given) | 0.1 | 7 | / | / | / | 2% | -0.1 | / | 14 | 6
COc1cc([N+](=O)[O-])ccc1NC(=O)CSc1nncn1-c1cccnc1 | -2.0 | 8 | 6 | 7 | -1.8 | / | -0.1 | -0.6 | -18 | 2
O=C(CCC1CCCC1)NNC(=O)c1ccccc1O | 3.3 | -5 | -10 | -8 | 2.2 | -4% | 0.2 | -11 | 8 | -3
O=C(NCc1ccccc1)C12CC3CC(CC(Cl)(C3)C1)C2 | -1.0 | -4 | 16 | 16 | 1.9 | -5% | -0.2 | -1.2 | -2 | -2
CCOc1ccc(CN(C)C(=O)CNC(=O)c2ccc(Br)o2)cc1OC | 0.8 | -10 | 5 | -8 | -1.1 | 2% | 0.2 | -14 | -9 | -3
O=C(NCc1cccnc1)C1CCN(S(=O)(=O)N2CCC3(CC2)OCCO3)CC1 | 2.3 | -12 | 8 | 3 | 1.7 | -6% | 0.3 | 4.9 | 23 | -1

Continued (4 carried over from the part before).
SMILES | RanGTP-Impb inh | T cruzi inh | rRNA inh HTS | rRNA inh HTS OD600 | rRNA inh HTS RFP | Vif TR-FRET | Bfl-1 A1 inh | MLL AF4-AF9 inh | Calb FLC | Beta apoptosis
O=C(CCC1CCCC1)NNC(=O)c1ccccc1O | 3.3 | -5 | -10 | -8 | 2.2 | -4% | 0.2 | -11 | 8 | -3
O=C(NCc1ccccc1)C12CC3CC(CC(Cl)(C3)C1)C2 | -1.0 | -4 | 16 | 16 | 1.9 | -5% | -0.2 | -1.2 | -2 | -2
CCOc1ccc(CN(C)C(=O)CNC(=O)c2ccc(Br)o2)cc1OC | 0.8 | -10 | 5 | -8 | -1.1 | 2% | 0.2 | -14 | -9 | -3
O=C(NCc1cccnc1)C1CCN(S(=O)(=O)N2CCC3(CC2)OCCO3)CC1 | 2.3 | -12 | 8 | 3 | 1.7 | -6% | 0.3 | 4.9 | 23 | -1
O=C(NCC(=O)N1CCN(C(=O)c2ccco2)CC1)c1ccc(Br)cc1 | 2.0 | -7 | 2 | 0 | -0.1 | / | 0.1 | 0.1 | 3 | -1
CC(=O)Nc1ccc2c(c1)nc1n2CCOC1 | 1.2 | -19 | / | / | / | 2% | 1.0 | / | -10 | -5
CC1(C)CC(=O)C=C(NNC(=O)c2ccccc2)C1 | ? | 9 | / | / | / | -1% | 0.3 | / | 5 | -4
Cc1nc2ccc(C(=O)NCc3ccc4c(c3)OCO4)cc2s1 | 4.0 | -9 | -18 | -19 | -5.0 | / | 0.2 | -2.0 | 6 | 5
COc1ccc(-n2c(SC3CCOC3=O)nc3ccccc3c2=O)cc1Cl (stereo not given) | -1.6 | -5 | -2 | 3 | 0.8 | / | 1.9 | 2.2 | 10 | -2
CCC(CC)COC(=O)C1=C(C)NC(=O)NC1c1cc(OC)ccc1OC (stereo not given) | 4.1 | 24 | 18 | 12 | 0.6 | / | -0.2 | -3.0 | 9 | -3
Cc1cccc(C(=O)Nc2ccc(NC(=O)Cc3ccc(Cl)cc3)cc2)c1 | -0.1 | -28 | / | / | / | / | -0.6 | / | 2 | -1
CCCCCCOc1ccc(-c2ccc(C#N)cn2)cc1 | 1.7 | 8 | / | / | / | -6% | -0.2 | / | 51 | /
CC1CCCN(c2ccc(C(=O)OCC(=O)N3c4ccccc4Sc4ccccc43)cc2[N+](=O)[O-])C1 (stereo not given) | 7.3 | 5 | 7 | 6 | 7.9 | 32% | 0.8 | -2.3 | 6 | 2
Cc1c(O)ccc(C(=O)CN2CCN(Cc3ccc4c(c3)OCO4)CC2)c1O | 3.3 | 3 | / | / | / | 0% | -0.3 | / | -10 | 0
CN1Cc2cccc3c2C(Cc2ccccc2S3)C1 (stereo not given) | 5.0 | 58* | 2 | -13 | 3.5 | -6% | 0.5 | 3.7 | -18 | -11

3 entries out of the list, ordered by length of the SMILES, highest first:
SMILES | RanGTP-Impb inh | T cruzi inh | rRNA inh HTS | rRNA inh HTS OD600 | rRNA inh HTS RFP | Vif TR-FRET | Bfl-1 A1 inh | MLL AF4-AF9 inh | Calb FLC | Beta apoptosis
COc1ccc(-n2c(SC3CCOC3=O)nc3ccccc3c2=O)cc1Cl (stereo not given) | -1.6 | -5 | -2 | 3 | 0.8 | / | 1.9 | 2.2 | 10 | -2
CN1Cc2cccc3c2C(Cc2ccccc2S3)C1 (stereo not given) | 5.0 | 58* | 2 | -13 | 3.5 | -6% | 0.5 | 3.7 | -18 | -11
CC(=O)Nc1ccc2c(c1)nc1n2CCOC1 | 1.2 | -19 | / | / | / | 2% | 1.0 | / | -10 | -5
